Autofluor counter: flagged as autofluorescent in microsphere protease counterscreen; compound autofluorescence counterscreen, microsphere flow cytometry; active compounds read high; 3.1% of 360,000 active; fluorescence intensity (no concentration beside the values);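 active = at least 3 SD above the mean of all compounds, about 16000 in these data; inconclusive = too few beads counted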;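 note: 100 nL of 1 mM stock went into each well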
Mtb hypoxia rep: inhibitors of hypoxia-regulated fluorescent reporter in Mycobacterium tuberculosis; 0.1% of 300,000 active; M. tuberculosis hypoxia-regulated fluorescent reporter, fluorescence; fluorescence inhibition, % (test concentration not listed);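 active = 35 to 45% if threefold the growth effect, above 45% if 1.5-fold the growth effect; inactive = the rest, general growth blockers included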;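 note: wells of about 50 µL received 100 nL stock; 0% = vehicle wells and 100% = reference inhibitor wells; whole bacteria with a GFP reporter of the hypoxia response; strong numbers were not always called active; many hits fall short of the cut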
ugtP null kill: compounds lethal to S. aureus RN4220 ugtP deletion mutant; OD600 growth, 16 h; some inactives read as strong as hits; growth inhibition, % (test concentration not listed); 0.54% of 330,000 active; AID 1259309;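 active = z-score under -3 and OD600 up to 0.15 on both plates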;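 note: plate controls were untreated wells for no effect and antibiotic for full effect; wells of about 80 µL received 100 nL stock; the first replicate is given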
Sa RN4220 lethal: S. aureus RN4220 growth inhibition. 0.33% of 330,000 active. OD600, 16 h. inhibition, % (test concentration not listed);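 active = z-score of -3 or lower and OD600 up to 0.18 on both plates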;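 note: plate controls were untreated cells for no effect and reference antibiotic for full effect; stock transfer was 100 nL into about 80 µL; one replicate is shown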
PrP 5UTR inh: inhibition of PrP 5' UTR reporter expression; cell-based PrP 5' UTR mRNA reporter, plate reader; inhibition, % (test concentration not listed); 0.35% of 340,000 active;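 active = every replicate at 50% or more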;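 note: 0 = median of the neutral control wells; tested in H4 reporter cells; numbers are from one replicate; inactives centre near -14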
BJeLR lethal: kills HRASV12-expressing BJeLR cells; BJeLR (HRASV12) viability, CellTiter-Glo ATP luminescence, 48 h; reference of the scale not given here; inhibition, % (concentration not given with the values); 0.17% of 300,000 active;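 active = replicate mean above 50%; inconclusive = above 50% but judged a plate artefact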;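 note: 50 nL library stock added to about 25 µL; numbers are from one replicate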
Mtb hypoxia rep growth: further read-out of Mtb hypoxia rep, marked with its call; growth inhibition, %; measured here: M. tuberculosis growth (absorbance);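 0% = vehicle and 100% = reference antibiotic; read after six days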
* marks the source's active call; other numbers are inactive results; ? = inconclusive; . = no result given.

1. Cc1cc(C(=O)NN=Cc2ccc([N+](=O)[O-])cc2)c(C)o1
2. O=C(Nc1ccc(Cl)c(S(=O)(=O)N2CCOCC2)c1)c1cn2ccccc2n1
3. CCN(CC)c1ccc(NC(=O)c2ccc(Br)o2)cc1
4. CC(C)c1ccc(NC(=O)c2cc(Br)ccc2Br)cc1
5. CCOC(=O)C/C(N)=N/NC(=O)c1ccc(Cl)cc1Cl
6. CC(C)(C)NC(=O)CSc1nncn1NCc1cccc2ccccc12
7. COc1ccc(CNCCc2ccc3c(c2)OCO3)c(OC)c1OC
8. O=C(CCCCCl)Nc1c2c(nc3ccccc13)CCC2
9. O/N=C/c1cn(-c2ccccc2)nn1
10. CCOC(=O)N1CCC(N2C(=O)c3ccc(C(=O)NCc4ccc(F)cc4)cc3C2=O)CC1
entry no.	1	2	3	4	5	6	7	8	9	10
Autofluor counter	.	3743	3662	4729	4616	2362	2890	4252	4322	5269
Mtb hypoxia rep	-1	6	13	14	-9	0	1	.	.	7
Mtb hypoxia rep growth	-1	0	6	10	7	8	4	.	.	1
ugtP null kill	16	4	-8	13	-3	-5	4	.	.	-5
Sa RN4220 lethal	8.2	2.6	3.9	7.9	0.5	1.5	1.7	.	.	-15
PrP 5UTR inh	.	-65	-81	-45	-28	-7	-39	-12	-9	-21
BJeLR lethal	.	0	6	4	-4	2	11	-2	2	.

11. Cc1ccc(-n2c(N)c(C(=O)N3CCCCC3)sc2=S)cc1
12. C=CCN(c1ccc(C(=O)NCCSc2ccccc2)cc1)S(C)(=O)=O
13. O=C(NN1C(=O)C2C3C=CC(O3)C2C1=O)c1ccncc1 (configuration not stated)
14. C/C(=N\NC(=O)c1ccc(NS(=O)(=O)c2cccs2)cc1)c1ccc2ccccc2c1
15. COC(=O)c1ccc2c(=O)n(CCN3CCOCC3)c(SCC(=O)Nc3ccc(C)cc3)nc2c1
16. O=C(O)CC(C(=O)O)c1ccc(OCCCCOc2ccc(C(CC(=O)O)C(=O)O)cc2)cc1 (configuration not stated)
17. COc1cc(CNC(=O)c2cnccn2)cc(OC)c1
18. COc1cc2c(C(=O)NCc3ccccn3)cn(C)c(=O)c2cc1OC
19. Cc1ccc(OCC(=O)Nc2ccc(S(=O)(=O)Nc3ccccn3)cc2)cc1
20. Cc1cc(N2CCCCCC2)nc2ccccc12
entry no.	11	12	13	14	15	16	17	18	19	20
Autofluor counter	.	3353	1983	10551	5578	3348	2830	7195	4852	3298
Mtb hypoxia rep	-3	-1	.	.	0	-1	10	7	6	.
Mtb hypoxia rep growth	6	10	.	.	7	1	-3	7	2	.
ugtP null kill	-3	1	.	.	3	5	4	-5	4	6
Sa RN4220 lethal	-2.0	-0.5	.	.	1.5	1.7	-0.4	-1.1	4.2	4.1
PrP 5UTR inh	-22	-15	-6	-24	2	-33	-26	-16	-14	-44
BJeLR lethal	-4	-9	-10	8	8	-10	.	-4	6	-3

In another format: entries from further up.
The line under a structure holds: Autofluor counter | Mtb hypoxia rep | Mtb hypoxia rep growth | ugtP null kill | Sa RN4220 lethal | PrP 5UTR inh | BJeLR lethal
12	C=CCN(c1ccc(C(=O)NCCSc2ccccc2)cc1)S(C)(=O)=O
  3353 | -1 | 10 | 1 | -0.5 | -15 | -9
11	Cc1ccc(-n2c(N)c(C(=O)N3CCCCC3)sc2=S)cc1
  . | -3 | 6 | -3 | -2.0 | -22 | -4
19	Cc1ccc(OCC(=O)Nc2ccc(S(=O)(=O)Nc3ccccn3)cc2)cc1
  4852 | 6 | 2 | 4 | 4.2 | -14 | 6

The list goes on:
21. CCCCNC(=O)N1CCCN(c2ccc(C#N)cn2)CC1
22. CC12CCC(CC1=NOC(=O)c1ccc(F)cc1)C2(C)C (configuration not stated)
23. Cc1c(S(=O)(=O)Nc2ccc(Br)cc2)c(=O)n(C)c(=O)n1C
24. CC1CCC2(CC1)NC(=O)N(CC(=O)NCc1ccc3c(c1)OCO3)C2=O (configuration not stated)
25. Cc1cc(C(=O)O)n(C(C)(C)C)n1
26. COc1ccc(CNC(=O)c2cnccn2)cc1
27. CCOC(=O)c1ccc(NC(=O)CSc2nnc(C3CC3)n2CC)cc1
28. O=C(Cn1ncc2c1-c1ccccc1OC2)Nc1cccc(Cl)c1
29. COc1ccc(C(C(=O)NCc2ccccc2)N(Cc2ccc3c(c2)OCO3)C(=O)c2cnccn2)cc1 (configuration not stated)
30. CCOc1ccc(-n2c(O)c(C=Nc3ccc(N(CC)CC)cc3)c(=O)[nH]c2=O)cc1
entry no.	21	22	23	24	25	26	27	28	29	30
Autofluor counter	3520	.	6704	4922	3356	10254	3048	4200	6120	12268
Mtb hypoxia rep	3	3	9	10	16	.	.	4	11	0
Mtb hypoxia rep growth	-1	9	7	4	2	.	.	3	6	1
ugtP null kill	6	-2	4	2	13	1	0	-28	3	-17
Sa RN4220 lethal	2.6	6.5	-11	4.1	2.5	-1.9	0.6	-13	1.3	3.4
PrP 5UTR inh	-26	.	-13	-12	-10	3	-8	3	-6	-11
BJeLR lethal	-2	.	-8	-2	6	-3	-12	0	-1	-4

31. CCN(Cc1cc2cc(C)ccc2[nH]c1=O)C(=O)c1cccc(OC)c1
32. Cn1nccc1C(=O)N1CCN(c2ccccc2F)CC1
33. COc1cc(C(=O)Oc2ccc(C(=S)N3CCOCC3)cc2)cc(OC)c1OC
34. Cn1nnnc1SCC(=O)NCc1ccc2c(c1)OCO2
35. Cc1cc(NN=Cc2ccccc2)nc(N)n1
36. O=C(Cc1ccc(Br)cc1)NCc1ccccc1
37. CCCSc1ccc(C2N[C@@](C)(C(=O)OC)C3C(=O)N(CC)C(=O)C23)cc1 (some centres not stated)
38. Cc1nnc(NC(=O)C2CCN(c3nnnn3-c3ccccc3)CC2)s1
39. COc1ccc2c(c1)C(=O)C(=O)N2CCS(=O)(=O)c1ccccc1
40. COc1cccc(CN2CCN(Cc3ccco3)CC2)c1
entry no.	31	32	33	34	35	36	37	38	39	40
Autofluor counter	5805	5886	3901	4590	.	4041	.	21118*	4785	3346
Mtb hypoxia rep	-8	19	-11	4	15	.	14	-12	1	-3
Mtb hypoxia rep growth	-4	8	-11	6	7	.	9	5	4	3
ugtP null kill	0	13	6	10	1	13	0	-8	1	1
Sa RN4220 lethal	1.1	-0.2	0.5	0.7	3.1	1.0	7.3	-1.8	0.7	1.7
PrP 5UTR inh	-9	-17	-26	-9	.	-16	.	-8	-27	-21
BJeLR lethal	0	0	-2	4	.	26	.	-3	7	0

Three of the compounds above, with values under each structure:
Order of values: Autofluor counter, Mtb hypoxia rep, Mtb hypoxia rep growth, ugtP null kill, Sa RN4220 lethal, PrP 5UTR inh, BJeLR lethal
29. COc1ccc(C(C(=O)NCc2ccccc2)N(Cc2ccc3c(c2)OCO3)C(=O)c2cnccn2)cc1 (configuration not stated)
→ 6120, 11, 6, 3, 1.3, -6, -1
30. CCOc1ccc(-n2c(O)c(C=Nc3ccc(N(CC)CC)cc3)c(=O)[nH]c2=O)cc1
→ 12268, 0, 1, -17, 3.4, -11, -4
31. CCN(Cc1cc2cc(C)ccc2[nH]c1=O)C(=O)c1cccc(OC)c1
→ 5805, -8, -4, 0, 1.1, -9, 0

Additional entries follow.
41. O=C(Nc1cccc(C(F)(F)F)c1)c1cccnc1NCCc1ccccc1
42. Cc1ccccc1C(=O)Nc1ccnn1C1CCN(CC2CC=CCC2)CC1 (configuration not stated)
43. COc1ccc(NC(=O)c2cccc(N3C(=O)c4cccc([N+](=O)[O-])c4C3=O)c2)cc1
44. Cc1ccc(NC(=O)CN(C)CC(=O)Nc2ccc(F)c(Cl)c2)cc1
45. CCCN(CCC)CCNC(=O)C1CCN(S(=O)(=O)c2cccc3nsnc23)CC1
46. CC(C)CCN(C(=O)CCSc1ccc(F)cc1)c1c(N)n(Cc2ccccc2)c(=O)[nH]c1=O
47. CCCCN1C(=O)C(O)(CC(=O)c2c(C)n[nH]c2C)c2cc(Br)ccc21 (configuration not stated)
48. Cc1ccc(NC(=O)N2CCC(C(=O)c3ccc(F)cc3)CC2)cc1
49. CCOc1cc(C(=O)NN=Cc2cn(-c3ccccc3)nc2-c2cc3ccccc3o2)cc(OCC)c1OCC
50. CC(/C=C/c1ccccc1)=N/NC(=O)CCC(=O)Nc1ccccc1C
entry no.	41	42	43	44	45	46	47	48	49	50
Autofluor counter	2665	4785	4578	4770	4117	4275	9910	5483	.	2454
Mtb hypoxia rep	10	13	6	0	8	6	1	0	0	.
Mtb hypoxia rep growth	8	-6	3	-1	-4	1	8	2	-3	.
ugtP null kill	4	19	10	-21	8	6	-6	1	2	.
Sa RN4220 lethal	0.6	5.2	3.2	2.8	2.9	-0.6	9.2	-0.9	-1.3	.
PrP 5UTR inh	-29	-7	-94	-14	-5	-11	-22	-12	.	-25
BJeLR lethal	6	-6	-12	10	-5	4	3	-7	.	-3

51. CCOC(=O)N1CCC(NC(=O)c2ccc3c(c2)N(CC)CCS3)CC1
52. C#CCOCCOCCOCCNc1nc(N2CCOCC2)nc(N2CCN(C(=O)C(CC(N)=O)n3cc(C(N)C(C)C)nn3)CC2)n1 (configuration not stated)
53. COc1cc2c(cc1OC)C(=O)NCC(C)(C)O2
54. C=CCN1C(=O)N/C(=C/c2ccc(N3CCOCC3)o2)C1=O
55. Cc1ccccc1Nc1nnc(SCC(=O)NC(=O)NCc2ccco2)s1
56. O=C(Cn1cc2c(n1)CCCCC2)NC1CCN(Cc2ccccc2)CC1
57. Cc1nn(Cc2cccc(C(=O)Nc3ccn(Cc4c(F)c(F)cc(F)c4F)n3)c2)c(C)c1[N+](=O)[O-]
58. CCOc1ccccc1NC(=O)C1CCCN(c2c(CC)c(C)nc3ncnn23)C1 (configuration not stated)
59. Cc1cccc(OCCNC(=S)NC(=O)c2cncc(Br)c2)c1
60. CCSc1nc2cc(OC)c(OC)cc2c(=O)n1CC
61. CCOc1ccc(C(=O)NN=Cc2ccc(SC)cc2)cc1
62. Cc1cccc(-n2c(=O)c(C#N)cc3c(=O)n4ccccc4nc32)c1
entry no.	51	52	53	54	55	56	57	58	59	60	61	62
Autofluor counter	5999	.	2349	.	8940	5581	7722	2932	?	2378	.	20190*
Mtb hypoxia rep	5	6	17	21	10	.	2	4	12	-1	13	6
Mtb hypoxia rep growth	4	5	2	12	5	.	10	2	1	6	11	5
ugtP null kill	-5	-3	2	-4	-2	9	-12	10	17	-4	2	5
Sa RN4220 lethal	-7.4	6.6	7.1	2.6	5.6	2.3	-4.0	5.5	2.0	12	3.1	5.6
PrP 5UTR inh	-12	.	-2	.	-20	-23	-11	-9	-6	2	.	-22
BJeLR lethal	7	.	7	-2	2	10	4	-4	-2	-4	.	-4

Assay outcomes from PubChem BioAssay.
